High-throughput results deposited in PubChem by Johns Hopkins Ion Channel Center.
KCNQ2 enhance = enhances the rat KCNQ2 potassium channel; O88943; CHO-K1 KCNQ2, FluxOR thallium flux fluorescence; hits give high values; B-score at 10 µM; 310,000 compounds, 0.54% hits;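 active = fluorescence ratio B-score at least 3 SD of library B-scores, with initial fluorescence B-score within 3 SD, cut at about 5.3 in these data; same plate scores as AID 2156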;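 also: B-score of peak minus minimum over baseline fluorescence ratio after K+ and Tl+ stimulus; positive B-score means potentiation of KCNQ2 with more thallium influx and brighter signal; only the inactives scoring about 0 or higher are listed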
Target sequence (O88943 whole entry, looked up): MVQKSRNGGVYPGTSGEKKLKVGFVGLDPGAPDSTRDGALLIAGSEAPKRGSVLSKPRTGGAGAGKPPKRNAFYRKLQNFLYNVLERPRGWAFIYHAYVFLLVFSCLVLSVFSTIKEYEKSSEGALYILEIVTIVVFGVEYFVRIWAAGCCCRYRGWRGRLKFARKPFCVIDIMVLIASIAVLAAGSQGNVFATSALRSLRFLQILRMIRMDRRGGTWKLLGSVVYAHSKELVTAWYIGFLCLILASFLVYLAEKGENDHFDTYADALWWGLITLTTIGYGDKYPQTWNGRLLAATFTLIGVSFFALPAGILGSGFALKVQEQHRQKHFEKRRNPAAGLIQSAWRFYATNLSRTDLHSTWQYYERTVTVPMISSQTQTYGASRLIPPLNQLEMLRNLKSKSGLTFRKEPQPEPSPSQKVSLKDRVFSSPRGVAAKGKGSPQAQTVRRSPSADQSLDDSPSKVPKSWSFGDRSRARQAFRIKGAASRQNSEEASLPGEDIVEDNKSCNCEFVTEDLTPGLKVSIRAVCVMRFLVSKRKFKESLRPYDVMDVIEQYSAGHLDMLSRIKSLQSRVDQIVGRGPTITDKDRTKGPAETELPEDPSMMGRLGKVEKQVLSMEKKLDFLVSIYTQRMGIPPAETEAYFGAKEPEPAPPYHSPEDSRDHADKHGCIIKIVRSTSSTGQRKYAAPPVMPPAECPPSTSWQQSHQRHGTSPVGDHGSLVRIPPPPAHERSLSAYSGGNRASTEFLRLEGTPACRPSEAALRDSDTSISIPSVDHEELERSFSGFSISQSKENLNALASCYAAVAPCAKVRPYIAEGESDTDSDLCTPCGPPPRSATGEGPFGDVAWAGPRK
KCNQ2 enhance baseline = recorded beside KCNQ2 enhance, whose call it bears; B-score; compound at 10 µM; measured here: initial fluorescence intensity artifact check;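 brightness before thallium and not channel activity; 0 = typical well and far values either way flag optical interference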
Numbers without * were called inactive. Not all compounds are listed; rates above refer to the full screens.

SMILES	KCNQ2 enhance	KCNQ2 enhance baseline
Cc1coc2c1c(C)cc1oc(=O)c(CC(=O)NCCCN3CCCC3=O)c(C)c12	1.36	1.8
COCCCNC(=O)C(=O)NC1CCCCC1C (centres undefined)	1.4	-0.03
COc1ccccc1Nc1nc(-c2sc(NC(=O)c3ccccc3)nc2C)cs1	1.32	0.02
Cn1c(SCc2cccc(Br)c2)nc2ccccc2c1=O	1.5	-0.87
S=C(NCCCc1ccccc1)NC1CCCCC1	3.28	2.11
COc1cc(NC(=O)NCC2CCN(Cc3ccc(C)cc3)CC2)cc(OC)c1OC	0.04	-0.64
C/C(=N/NC(=O)c1ccc2c(c1)OCO2)c1cccc(NC(=O)C(C)(C)C)c1	0.36	-1.23
Cc1cc(S(=O)(=O)N2CCCC2)ccc1OCC(=O)N1CCCCC1	0.87	-0.84
O=c1ncn(-c2cccc(Cl)c2)c2ccccc12	0.6	0.97
COc1cccc(CNC(=O)CCNS(=O)(=O)c2cccc3nonc23)c1	1.29	0.22
COC(=O)NNC(=O)c1ccccc1C	0.16	-0.63
Cc1cc(C)nc(NC(=O)c2ccc([N+](=O)[O-])c(C)c2)n1	0.58	-0.06
COc1ccc(-c2csc(Nc3ccc(S(N)(=O)=O)cc3)n2)cc1	0.6	1.17
Cc1ccc(CNC(=O)C2(C)Oc3ccccc3NC2=O)cc1 (centres undefined)	0.59	-1.28
CCc1ccc(NC(=O)CN2C(=O)COc3ccc(S(=O)(=O)N4CCCC4)cc32)cc1	2.93	-1.11
Cc1cc(=O)n2c(n1)SCOC2	0.23	1.52
N/C(=N\OC(=O)c1ccc(F)cc1)c1ccccc1	0.26	1.03
Cc1nc(SCC(=O)Nc2ccnc3ccccc23)n[nH]1	0.99	0.5
CC(=O)N1CCN(C(=O)c2cc(-c3ccc(Cl)s3)nc3ccccc23)CC1	0.61	0.15
COc1ccc(N2C(=O)CC(N3CCC(O)(c4ccc(Br)cc4)CC3)C2=O)cc1 (centres undefined)	1.28	-1.15
COc1cc(C2N(c3cc(C)on3)C(=O)C3CCCN32)cc(OC)c1OC (centres undefined)	0.08	0.67
Cc1ccccc1OCc1nnc(SCC(=O)Nc2ccc3c(c2)OCO3)n1C	1.25	-1.76
NC(=O)Cn1c(=O)n(Cc2ccco2)c(=O)c2c3c(sc21)CCCCC3	0.28	-0.96
Cc1cc(NS(=O)(=O)c2ccc(NC(=O)CSc3nc4ncc(Cl)cc4[nH]3)cc2)nc(C)n1	0.97	2.03
CCCN(CCC)S(=O)(=O)c1ccc(C(=O)O)cc1	1	-1.91
COc1ccc(N2C(=O)CC(NCc3cccc(F)c3)C2=O)cc1 (centres undefined)	0.55	-0.14
CCOC(Cn1c(SCC(=O)Nc2cc(C)on2)nc2ccccc2c1=O)OCC	0.97	-0.5
O=C1[C@@H]2Cc3c([nH]c4ccccc34)CN2C(=O)CN1CCCO	0.73	0.39
Cc1ccsc1/C=C(\C#N)C(=O)NCCCN1CCOCC1	0.9	1.44
Cc1ccc(C23CC4CC(CC(C(=O)OCC(=O)NC5CCS(=O)(=O)C5)(C4)C2)C3)cc1 (centres undefined)	0.55	-2.15
CCOC(=O)c1ccc(NC(=S)NCc2ccc(S(N)(=O)=O)cc2)cc1	0.57	-0.85
Cc1c(C)c(C)c(S(=O)(=O)N2CCC3(CC2)OCCO3)c(C)c1C	0.08	1.73
CCCN1CCC(NC23CC4CC(CC(C4)C2)C3)CC1	0.34	-0.39
C/C(=N\NC(=S)Nc1ccccc1C)C1Cc2ccccc2C(=O)O1 (centres undefined)	0.06	0.66
CCOC(=O)c1sc(NC(=O)c2cc(-c3ccc(C)cc3)nc3ccccc23)c(C#N)c1C	0.01	0.03
Cc1ccc2oc(=O)c3cnn(CC(=O)N4CCN(c5ccccn5)CC4)c3c2c1	1.35	-0.36
CCOc1ccc(/C(O)=C2/C(=O)C(=O)N(Cc3cccnc3)C2c2ccc(N(C)C)cc2)c(C)c1 (centres undefined)	2.18	1.52
COC(=O)c1c(-c2ccccc2)noc1-c1ccccc1	0.66	1.49
O=C(CSc1nncn1-c1cccnc1)Nc1cccc([N+](=O)[O-])c1	0.37	0.16
CCOc1ccc(C(=O)C(CN2CCOCC2)c2ccccc2)cc1 (centres undefined)	0.45	-0.56
NC(=O)CSc1c[nH]c2ccccc12	0.12	0.88
Cc1[nH]c2ccccc2c1NC(=O)CN1CCN(C(=O)c2ccco2)CC1	1.1	2.53
CCn1ncc(CN2CCN(Cc3cccc(OC)c3)C(CCO)C2)c1C (centres undefined)	0.03	0.2
COCCCNC(=O)CN(CCc1ccccc1)S(=O)(=O)c1ccc(C)cc1	1.23	-0.47
CCS(=O)(=O)c1nc(S(=O)(=O)c2ccc(C)cc2)c(NCCCN2CCCC2=O)s1	0.08	2.18
COc1ccc(-c2cc(CNC(C)=O)on2)cc1	0.89	0.2
CN1CCC(NC(=O)c2cccc(Oc3ccccc3)c2)CC1	2.42	-0.03
O=C(O)c1cc(N2C(=O)C3CC=CCC3C2=O)ccc1NCc1cccnc1 (centres undefined)	0.37	1.15
CCOc1ccc(NC(=O)CCC(=O)Nc2nnc(CC)s2)cc1	1.6	0.96
Cc1ccc(CSc2nnc(-c3cccc(S(=O)(=O)N4CCOCC4)c3)n2CC(C)C)cc1	0.18	0.34

Continuation.
SMILES	KCNQ2 enhance	KCNQ2 enhance baseline
CCCn1c(C(O)c2cc(OC)c(OC)c(OC)c2)nc2ccccc21 (centres undefined)	0.2	-0.9
O=C(Nc1cccnc1)c1ccc(COc2ccccc2Cl)o1	0.59	0.45
COc1ccccc1CN(C)c1nnnn1-c1ccccc1	0.3	0.12
CCOC(=O)C(=O)/C(=C\N(C)C)c1onc(-c2c(Cl)cccc2Cl)c1C(=O)OC	0.16	0.14
CCNc1nc(NCC)n2c(SCc3ccc(F)cc3)nnc2n1	1.13	-0.65
O=C(NC1CCN(c2ncccn2)CC1)c1cccc(F)c1	1.26	1.15
COC(=O)/C=C1/SC(=Nc2ccc(C)cc2C)NC1=O	0.58	0.12
CC(=O)c1ccc(NC(=O)CSc2nnc(-c3ccco3)o2)cc1	0.54	-1.33
O=C(Oc1cccc(-n2cnnn2)c1)c1sc2ccccc2c1Cl	0.02	0.52
CCOc1ccc(NC(=O)c2sc3nc4n(c(=O)c3c2C)CCC4)cc1	0.06	-0.85
CCOC(=O)c1c(C)c(C(=O)NCCCN2CCCC2=O)c(C)n1CC	0.45	1.22
CC(C)Oc1ccc(S(=O)(=O)N2CCCCC2)cc1NC(=O)C1CSC2(C)CCC(=O)N12 (centres undefined)	0.24	-1.78
CCC1CCCCN1Cc1nc2c(c(=O)n(C)c(=O)n2C)n1Cc1ccccc1 (centres undefined)	1.59	-2.12
O=C(c1cccc(S(=O)(=O)N2CCc3ccccc32)c1)N1CCCC(C(F)(F)F)C1 (centres undefined)	0.83	1.62
CCOC(=O)CNC(c1ccccc1)c1cc(Br)ccc1NC(=O)CCN1CCOCC1 (centres undefined)	0.04	-0.85
COc1cccc(N2CCN(C(=O)c3cccc(N4C(=O)NC5CC4(C)Oc4c(OC)cccc45)c3)CC2)c1 (centres undefined)	1.11	-0.54
CCC(C)NC(=O)C1CCCCN1S(=O)(=O)c1ccc(F)cc1 (centres undefined)	0.16	1.48
Cc1ccc(CNC(=O)c2cnccn2)cc1	1.15	0.49
Cc1ccc(C(=O)NCCCNC(=O)Cc2ccc(Cl)cc2)cn1	0.85	0.54
CCN(CC)CC1C(=O)N(c2ccc(OC)cc2)C1c1ccccc1 (centres undefined)	0.3	-0.06
CCNC(=S)Nc1cccc(Cl)c1C	0.91	-1.19
CN(C)Cc1nc2c([nH]1)c(=O)n(C)c(=O)n2C	0.15	0.96
COc1ccc(-c2nn(-c3ccccc3)cc2C#N)cc1	1	-0.61
CN(C)S(=O)(=O)N1CCN(C(=O)c2ccccc2Cl)CC1	0.24	-1.13
COc1cccc2sc(Nc3nnc(-c4cccs4)o3)nc12	10.4*	-0.31*
O=C(CN1CCN(S(=O)(=O)c2ccc(F)cc2)CC1)NCc1cccs1	0.7	-0.17
Cc1ccc2c(c1)cc(C)c1nnc(SCC(=O)NCc3ccco3)n12	0.92	-0.7
CC1(C)CC(NC(=S)NCc2ccco2)CC(C)(C)N1	0.5	-0.16
CC(C)(C)C(=O)NC(=S)Nc1cc(C(=O)O)ccc1Cl	0.44	1.1
CN1CCN(/N=C/c2ccc(Cl)c(Cl)c2)CC1	0.62	-0.13
CCN(CC)C(=O)C12CC3CC(CC(Br)(C3)C1)C2	0.08	0.02
COc1cc(NC(=O)CCNS(=O)(=O)c2cc(Br)cnc2N)cc(OC)c1	0.51	1.43
CCN(CC)CCN1C(=O)C(=O)/C(=C(/O)c2ccc(S(=O)(=O)N3CCOCC3)cc2)C1c1ccc(C)cc1 (centres undefined)	0.4	-2.18
Cc1ccc(OC(=O)c2ccc(C)c([N+](=O)[O-])c2)cn1	1.16	0.01
COC(C[C@@H]1O[C@@H]1[C@H](O)[C@@H](C)OCc1ccccc1)OC	1.19	-0.39
O=C1CC2(CCCCC2)Oc2ccc(O)cc21	1.16	-0.15
Cn1ccnc1C(=O)Cc1ccc([N+](=O)[O-])cc1	0.8	0.12
N=C1S/C(=C\c2cn[nH]c2-c2ccc(F)cc2)C(=O)N1c1ccccc1F	0.92	0.95
COC(=O)Cc1ccc(NC(=O)c2ccccc2Cl)cc1	0.47	1.2
Cc1ccc(C)c2sc(NC(=O)c3ccc(N4C(=O)CCC4=O)cc3)nc12	2.21	0.07
COc1ccc(CCN(C)C(=O)C2CCN(Cc3cccc(OC)c3OC)CC2)cc1OC	0.42	0.87
COc1cc2c(cc1OC)C(c1cccs1)N(C(=O)C(C)C)CC2 (centres undefined)	1.4	-0.03
CCOc1cc(-c2c(C#N)c(N)nc3c2CCc2ccccc2-3)ccc1O	0.28	-0.08
Cc1c(/C(O)=C2\C(=O)C(=O)N(CCN(C)C)C2c2ccco2)cnn1-c1ccccc1 (centres undefined)	0.2	0.11
CC12CCC(C(=O)N3CCCCC3)([C@H](Br)C1=O)C2(C)C (some centres undefined)	0.56	-1.33
COc1ccc(Cc2nnc(NC(=O)CSc3ccccc3)s2)cc1OC	0.39	-0.68
CCOc1ccc(N(C(=O)CNC(=O)c2ccco2)C(C(=O)NCC2CCCO2)c2ccccc2)cc1 (centres undefined)	0.03	0.02
CCCc1nc(-c2cc3ccccc3[nH]c2=O)no1	0.12	-0.02
O=C(NCCCc1ccccc1)c1cncc(Br)c1	0.8	2.1
Cc1ccccc1NC(=O)NCC1CCN(c2ccc(S(=O)(=O)N3CCOCC3)cc2)CC1	0.16	1.37

Complete entries, quoted from the list. Order of screens: KCNQ2 enhance | KCNQ2 enhance baseline
Listed for Cc1ccccc1NC(=O)NCC1CCN(c2ccc(S(=O)(=O)N3CCOCC3)cc2)CC1 : 0.16 | 1.37
Listed for COc1ccc(Cc2nnc(NC(=O)CSc3ccccc3)s2)cc1OC : 0.39 | -0.68
Listed for CCOc1ccc(N(C(=O)CNC(=O)c2ccco2)C(C(=O)NCC2CCCO2)c2ccccc2)cc1 (centres undefined) : 0.03 | 0.02
Listed for CCCc1nc(-c2cc3ccccc3[nH]c2=O)no1 : 0.12 | -0.02

Later entries
SMILES	KCNQ2 enhance	KCNQ2 enhance baseline
O=C(Nc1ccc(F)cc1)C1CCCN(c2cnccn2)C1 (centres undefined)	0.93	-2.1
CCO[C@H]1OC(C(=O)O)=C[C@@H](c2ccccc2)[C@@H]1CCCO	0.31	1.73
COc1cc(OC)cc(C(=O)Nc2nnc(SCC(=O)NCc3ccco3)s2)c1	2.35	0.35
COc1cc(-c2nc(-c3ccccc3)c(-c3ccc(F)cc3)[nH]2)cc2c1OCO2	0.03	0.58
COc1ccc(OC)c(C(=O)COC(=O)c2cccnc2Cl)c1	0.38	-0.57
Cc1cc2cc(CCNC(=O)CCc3ccccc3)c(=O)[nH]c2cc1C	0.69	-0.3
O=C(O)CCC(=O)Nc1ccc(C(=O)OC2CCCCC2)cc1	0.23	-0.04
CCOCCCNS(=O)(=O)Cc1ccccc1	0.79	-0.65
CCOC(CCn1c(SCC(=O)Nc2cc(C)on2)nc2ccccc2c1=O)OCC	0.58	-0.77
Cc1nn(Cc2ccc(Cl)cc2Cl)c(C)c1NC(=O)CCl	2.01	-0.12

Molecules listed so far that have a COOH group (five):
SMILES	KCNQ2 enhance	KCNQ2 enhance baseline
CCCN(CCC)S(=O)(=O)c1ccc(C(=O)O)cc1	1	-1.91
O=C(O)c1cc(N2C(=O)C3CC=CCC3C2=O)ccc1NCc1cccnc1 (centres undefined)	0.37	1.15
CC(C)(C)C(=O)NC(=S)Nc1cc(C(=O)O)ccc1Cl	0.44	1.1
CCO[C@H]1OC(C(=O)O)=C[C@@H](c2ccccc2)[C@@H]1CCCO	0.31	1.73
O=C(O)CCC(=O)Nc1ccc(C(=O)OC2CCCCC2)cc1	0.23	-0.04

The listing continues:
SMILES	KCNQ2 enhance	KCNQ2 enhance baseline
CC1=NN(c2ccc(C(=O)O)cc2)C(=O)CC1	0.2	-1.37
CCOC(=O)COc1cc2c3c(c(=O)oc2cc1C)CCCC3	1.76	0.74
Cc1cc(C)n2ncc(C(=O)NC3CCCCC3)c2n1	0.3	-1.17
CC(=O)Nc1cccc(NC(=O)CCNC(=O)c2ccccc2)c1	0.52	3.11
COC(=O)C1=C(C)Nc2sc(C(N)=O)c(N)c2C1c1ccncc1 (centres undefined)	0.05	0.01
CCCCN(C)CCn1c(=S)[nH]c2cc(OCC)c(OCC)cc2c1=O	5.4*	-2.46*
CCc1cc([N+](=O)[O-])cc(CC)c1N	0.08	0.07
CCOc1c(C=C(C#N)C#N)c2ccccc2n1CC	1.54	-0.93
Cc1cccc(C)c1NC(=O)CSc1nc(-c2ccco2)cc(C(F)(F)F)n1	2.17	-1.33
Cc1ccc(N2CCN(S(=O)(=O)c3c(C)noc3C)CC2C)cc1 (centres undefined)	0.33	1.16
